T cruzi repl = blocks replication of Trypanosoma cruzi; T. cruzi beta-gal in NIH3T3, luminescence, 90 h; inhibition, % (test concentration not listed); actives 1.4% (n = 300,000); AID 1885;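 active means mean inhibition across valid replicates above about 55%, limit read from the data; inconclusive means mean below that limit but half or more replicates reach it; inactive means mean below it, under half of replicates reach it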;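 further: signal also drops with host cell toxicity which is not excluded here; 0% = plate median of DMSO wells and 100% = zero luminescence signal; higher percent means less beta-gal luminescence so fewer parasites; stock transfer was 50 nL into about 50 µL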
Bfl-1 A1 inh = inhibitors of the anti-apoptotic protein A1, read as caspase activation. MEF A1-2A-BIM cells, Caspase-Glo 3/7 luminescence, 3 h; percent of clofoctol response, vehicle zero. caspase activation, % (no concentration beside the values). actives 0.066% (n = 330,000);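 active means over half of replicate activation scores above 10%, or exactly half above 10 with the replicate mean above 10; inconclusive means replicate mean below 10 yet half the replicates above 10; inactive means over half of replicates below 10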;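 further: wells of about 30 µL received 50 nL stock; many hits fall short of the cut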
Calb FLC = affects C. albicans growth with fluconazole; C. albicans CaCi-2 (fluconazole-resistant clinical isolate) + fluconazole, Alamar Blue growth, 48 h; growth inhibition, % (concentration not given with the values); actives 0.57% (n = 300,000);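 active means most replicates above 75%; inconclusive means exactly half above 75%; inactive means most below 75%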;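 further: all wells also contain fluconazole at 8 µg/ml as a sub-toxic cotreatment; 0% = median of DMSO wells and 100% = median of geldanamycin control wells; wells of about 8 µL received 7.5 nL stock; the first replicate is given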
LANA-H2B inh = blocks KSHV LANA binding to histone H2A/H2B; inhibition, % (test concentration not listed); Q9QR71; cell-free LANA-H2A/H2B peptide, fluorescence polarization; AID 2629; actives 0.6% (n = 320,000); in the data active means inhibition mostly above about 10%, no sharp cut-off; inactive means mostly below about 6.7%;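 further: stock transfer was 7.5 nL into about 10 µL; 0% = median of vehicle wells and 100% = median of positive control wells; one replicate is shown; the record names a cut of 25% in any replicate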
Beta2AR agonist = agonists of human beta-2 adrenergic receptor inducing internalization | P07550 | Am2.2-beta2AR cells, FAP receptor internalization, flow cytometry; reference of the scale not given here | actives 0.43% (n = 340,000) | response, % (test concentration not listed);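 active means response above a set limit, near 3 SD of response in nonfluorescent compounds, cut at about 42% in these data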;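 further: stock transfer was 100 nL into about 11 µL; a reference agonist was the positive control; negative values mostly stem from fluorescent compounds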
Target sequence (P07550 whole entry, looked up): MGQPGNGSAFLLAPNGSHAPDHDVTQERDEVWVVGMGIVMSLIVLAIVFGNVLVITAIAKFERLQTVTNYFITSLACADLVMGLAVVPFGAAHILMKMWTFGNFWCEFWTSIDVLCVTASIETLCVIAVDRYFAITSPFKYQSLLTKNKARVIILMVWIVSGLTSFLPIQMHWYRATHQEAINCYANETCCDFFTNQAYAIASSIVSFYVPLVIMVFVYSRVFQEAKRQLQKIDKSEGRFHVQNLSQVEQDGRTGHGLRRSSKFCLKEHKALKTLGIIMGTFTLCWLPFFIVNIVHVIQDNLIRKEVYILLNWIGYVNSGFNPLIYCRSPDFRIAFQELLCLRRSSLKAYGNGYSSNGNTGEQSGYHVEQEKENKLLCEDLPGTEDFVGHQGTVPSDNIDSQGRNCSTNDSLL
UCH37 DUB inh = inhibitors of human deubiquitinating enzyme UCH37; Q9Y5K5; inhibition, % (test concentration not listed); purified proteasome/UCH37, Ub-AMC cleavage fluorescence; AID 588478; actives 0.33% (n = 330,000);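 active means mean of two replicates above 20%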;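 further: 0% = compound-free wells with enzyme and 100% = wells lacking proteasome; stock transfer was 100 nL into about 20 µL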
Target sequence (Q9Y5K5 whole entry, looked up): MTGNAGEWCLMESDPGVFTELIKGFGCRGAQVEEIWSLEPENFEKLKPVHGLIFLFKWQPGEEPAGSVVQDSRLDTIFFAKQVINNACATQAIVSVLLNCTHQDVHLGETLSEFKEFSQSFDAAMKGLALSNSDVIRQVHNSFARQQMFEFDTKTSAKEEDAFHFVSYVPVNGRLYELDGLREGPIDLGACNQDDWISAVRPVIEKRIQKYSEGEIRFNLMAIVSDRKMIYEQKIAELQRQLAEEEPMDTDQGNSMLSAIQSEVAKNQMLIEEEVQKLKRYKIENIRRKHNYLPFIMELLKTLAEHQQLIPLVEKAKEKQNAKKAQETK
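Signal – fluorescence, ex 355 nm, em 460 nm · System – Proteasome-bound UCH37 · Input – 0.15 nM proteasome as dispensed · Timing – 30 min preincubation with enzyme, 25 min cleavage at room temperature · Read-out basis – percent inhibition of cleavage signal versus uninhibited and no-proteasome wells · Medium – Tris-HCl pH 7.4 with ATP-MgCl2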
RanGTP-Impb inh = inhibitors of RanGTP-importin-beta interaction, primary screen, biochemical, FRET, CFP-Ran, YFP-importin-beta, homogeneous; actives 1.1% (n = 300,000); cell-free CFP-Ran/YFP-importin-beta FRET ratio; inhibition, % (concentration not given with the values);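 active means most replicates above 15%; inconclusive means exactly half above 15%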;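 further: 0% = DMSO wells and 100% = Ran loaded with GDP instead of GTP; wells of about 40 µL received 100 nL stock; the first replicate is given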
Beta cell apopt = blocks beta cell apoptosis; INS-1E cytokine-induced death, ATP luminescence, 48 h; percent of positive-control rescue, neutral wells zero; protection from apoptosis, % (no concentration beside the values); actives 0.8% (n = 300,000);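 active means all replicates at 75% or more, or half of them and the mean; inconclusive means half reach 75% but not the mean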;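 further: 0% = cytokine-treated negative control wells and 100% = positive control rescue; higher means more ATP so stronger rescue from cytokine killing; wells of about 40 µL received 100 nL stock; the first replicate is given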
* marks the source's active call; other numbers are inactive results; ? = inconclusive; . = no result given; & = joins results of further samples.

SMILES | T cruzi repl | Bfl-1 A1 inh | Calb FLC | LANA-H2B inh | Beta2AR agonist | UCH37 DUB inh | RanGTP-Impb inh | Beta cell apopt
CCCCN1C(=O)CN(CCc2ccccc2)C(=O)C1c1ccc(OC)cc1 (stereo unspecified) | 10.1 | 0.6 | -7.1 | 1.4 | 6.4 | 4.1 | 3.5 | -0.6
CC(C)c1ccc(NC(=O)c2csnn2)cc1 | -16.3 | -2.2 | 6.7 | 3.4 | 2.5 | -0.7 | 0.5 | 1.9
C/C(=N\NC(=O)c1csc(C)c1C)c1ccco1 | -6.4 | -5.4 | -3.6 | -0.2 | 2.2 | . | 1.0 | 4.2
CCc1ccc(NC(=O)C(C)OC(=O)CC(NC(C)=O)c2ccccc2)cc1 (stereo unspecified) | -1.3 | 0.2 | -0.1 | -2.8 | -5.9 | 1.2 | 4.4 | -1.9
Cc1ccc2c(c1)c1c(n2CC(O)Cn2c(C)nc3ccccc32)CCCC1 (stereo unspecified) | 23.3 | 0.5 | 1.9 | 0.3 | 17.7 | 5.2 | -3.8 | -1.2
Cc1cc(C)n2nc(NCc3ccccc3)nc2n1 | -6.8 | 0.2 | -4.8 | 2.0 | -6.5 | -75.9 | ? | -7.2
Cc1cccc(-n2cc3c(=O)n(C)c(=O)n(C)c3c2)c1 | 11.9 | 0.4 | 2.2 | 0.2 | -2.5 | -0.9 | 0.9 | -20.3
Clc1cccc(Cl)c1-c1nnc2ccc(N3CCOCC3)nn12 | -5.9 | -0.2 | 27.7 | 1.9 | 1.7 | 1.7 | -0.2 | 3.0
Cc1ccc(-c2cc(C(F)F)n3ncc(C(=O)N4CCc5ccccc5C4)c3n2)cc1 | 58.3* | 0.3 | 44.6 | -0.8 | 5.7 | -32.3 | 3.4 | 3.4
CC(=O)N1N=C(c2ccc(Cl)cc2)OC12CCCC2 | 9.8 | -0.9 | -3.1 | 0.5 | -2.4 | -34.1 | 0.7 | 2.2
Cn1c(SCc2nc3ccccc3[nH]2)nnc1-c1cnccn1 | 3.7 | 0.1 | 4.2 | -0.6 | 2.6 | 1.3 | -4.2 | -2.2
CCOC(=O)C(=CNc1cc(C(F)(F)F)ccc1N1CCOCC1)C(=O)OCC | 22.5 | 0.0 | -6.3 | -0.9 | -13.2 | -7.8 | 5.7 | 7.7
O=[N+]([O-])c1ccc(OCCN2CCCCCC2)cc1 | 9.6 | -0.1 | 8.9 | 0.9 | -6.8 | 4.4 | 0.3 | -3.2
CCOc1ccc(C(=O)NC2CC(=O)N(c3ccc4c(c3)OCCO4)C2)cc1 (stereo unspecified) | -5.9 | 1.1 | 7.9 | 1.5 | -5.1 | 3.1 | -0.1 | .
COc1cc([N+](=O)[O-])ccc1-c1ccc(/C=N\n2cnnc2)o1 | 10.6 | 0.0 | -5.8 | -2.8 | -1.4 | . | -5.3 | 6.8
CCCNC(=O)c1cn(CC)c2cc(N3CCN(C(=O)c4ccco4)CC3)c(F)cc2c1=O | -10.4 | -0.5 | -1.3 | 0.5 | 16.1 | -151.1 | 10.2 | 0.4
O=C(Nc1ccc(F)c(F)c1)c1ccc(-n2cncn2)c([N+](=O)[O-])c1 | . | 0.5 | . | 5.7 | 9.7 | 3.4 | . | 1.3
CC(=O)c1cc2c(cc1NC(=O)C1CC=CCC1C(=O)O)OCO2 (stereo unspecified) | -7.7 | -0.2 | -7.6 | 0.3 | 5.9 | -15.7 | 3.1 | 0.7
CC1=C(C(=O)OCc2ccccc2)C(c2cccc([N+](=O)[O-])c2)NC(=O)N1 (stereo unspecified) | -0.5 | -0.5 | 0.9 | 2.5 | -1.2 | 1.7 | 3.4 | -5.3
O=C(NCCN1CCOCC1)C(=O)NCC1OCCN1S(=O)(=O)c1ccc(F)cc1 (stereo unspecified) | -9.4 | -0.1 | -0.1 | 4.6 | -4.6 | -1.2 | -4.0 | -4.6
CC(C)CN(C(=O)Cn1nnc(-c2ccc(F)cc2)n1)C1CCS(=O)(=O)C1 (stereo unspecified) | -0.3 | -0.1 | 0.7 | -1.0 | 3.4 | 4.9 | -1.7 | -4.8
CC(Nc1nc2ncn(Cc3ccccc3)c2c(=O)[nH]1)C(=O)O (stereo unspecified) | -6.4 | -0.2 | -1.5 | -0.9 | 3.3 | 6.7 | -1.7 | -1.0
COc1ccc(C2Nc3ccccc3C(=O)N2Cc2ccco2)cc1CN1C(=O)c2ccccc2C1=O (stereo unspecified) | 24.0&35.7 | 1.1&-0.3 | 13.1&2.0 | -3.9&-0.4 | -10.5&-2.6 | -5.1&-3.7 | 2.3&3.1 | 4.3&-1.1
COc1cc(/C=N/Nc2nc(Nc3ccccc3)nc(-n3nc(C)cc3C)n2)cc(OC)c1OC | 54.5* | 0.1 | 7.9 | -0.2 | 12.5 | . | 5.4 | 71.6
CCc1ccc2oc(C(=O)Nc3ccc(S(N)(=O)=O)cc3)c(C)c2c1 | -8.0 | -0.5 | 2.2 | -0.7 | -6.3 | -13.9 | 2.9 | 4.2
COc1cccc(N2CCN(S(=O)(=O)c3cccc4cccnc34)CC2)c1 | -13.4 | 0.6 | 1.6 | 3.3 | -0.8 | 4.2 | -1.9 | -0.1
CCCCCCc1cc2cc(-c3nnc(-c4cc(OC)c(OC)c(OC)c4)o3)c(=O)oc2cc1O | 13.7 | -0.2 | -8.2 | -6.9 | . | -54.6 | 139.3* | 4.8
Cc1cc(C)n(C(=O)CCCn2nc(C)c([N+](=O)[O-])c2C)n1 | -4.5 | -0.3 | 1.7 | -0.4 | 5.7 | -3.4 | -2.5 | 2.4
COc1ccc(C(CCN2CCN(c3ccccc3)CC2)c2c(O)cc(OC)cc2OC)cc1 (stereo unspecified) | 30.3 | -0.6 | -29.0 | 2.2 | 4.0 | 1.3 | 1.0 | 3.3
Cc1ccc(/C=N/NC(=O)c2nnn(-c3nonc3N)c2CSc2ccc(Cl)cc2)o1 | -6.9 | -0.1 | . | -3.2 | 1.0 | . | 3.3 | -4.5
Cc1cc(Cl)ccc1OCC(O)CN1C(C)CCCC1C (stereo unspecified) | 17.7 | 0.9 | -21.4 | -0.7 | . | 4.1 | 1.5 | 1.1
COc1ccc(-c2c(C)nc(N)nc2-c2ccc(OC)cc2O)cc1 | 4.3 | -0.5 | 11.8 | 0.3 | 1.1 | -4.4 | -2.6 | -2.1
CC(C)c1ccc(OCC(=O)NCc2n[nH]c(=O)c3ccccc23)cc1 | -4.2 | 1.6 | 6.9 | -5.3 | 2.5 | 4.2 | -3.5 | -8.4
COc1ccc(S(=O)(=O)N2CCN(C(=O)CNC(=O)c3ccc4c(c3)OCO4)CC2)cc1 | 0.8 | 0.9 | . | 4.4 | -8.3 | 0.3 | -0.7 | -4.3
COCCn1c(SCC(=O)N2CCCC(C)C2)nnc1-c1ccco1 (stereo unspecified) | -5.5 | 0.5 | -8.0 | -1.6 | 5.5 | 0.6 | 2.0 | -4.9
CN(Cc1ccccc1)C(=O)CN(C)S(=O)(=O)c1ccc(F)cc1 | -16.9 | 1.2 | -5.1 | -3.3 | -8.1 | 1.5 | 5.6 | -3.4
Cc1ccccc1Nc1nc(N)nc(CSc2nnnn2C)n1 | -5.6 | 0.8 | 24.6 | 6.4 | 5.5 | 0.6 | ? | -2.3
CCOc1ccc(NC(=O)N2CCN(CC)CC2)cc1 | 7.2 | -1.3 | -20.7 | -5.6 | -15.8 | 4.2 | 0.8 | 1.8
COC(=O)c1ccccc1NC(=S)N1CCN(C2CCCCC2)CC1 | -1.1 | 0.4 | 2.5 | -1.3 | -8.1 | 1.3 | 9.3 | -7.4
CCC(C)(C)NC(=O)C(c1ccc(OC)cc1)N(CC1CCCO1)C(=O)CCC(=O)Nc1cc(C)on1 (stereo unspecified) | -27.3 | -0.9 | . | 1.3 | -3.1 | -2.5 | -1.6 | -4.0
Cc1cc(Cl)ccc1OCC(=O)N1CCCN(C(=O)COc2ccc(Cl)cc2C)CC1 | -6.9 | 0.4 | -7.9 | 1.7 | -5.5 | 3.0 | 0.5 | 4.9
COCc1cc(C)nc(OCC(=O)N/N=C/c2ccccc2O)c1C#N | -9.3 | -1.0 | -7.5 | -1.5 | -5.5 | . | 3.6 | -3.1
COc1cccc(CNC(=O)C2CCN(S(=O)(=O)c3ccc(-n4cnnn4)cc3)CC2)c1 | . | 0.3 | -1.3 | -4.7 | -0.6 | 5.5 | 1.9 | 8.3
Cc1ccccc1CSCC(=O)N1CCN(c2ccccc2)CC1 | -2.8 | 0.6 | -2.7 | 7.3 | -2.7 | 1.1 | -11.2 | -5.1
Cn1cnnc1SCc1ccccc1Br | 4.0 | 0.1 | 7.0 | 0.2 | -0.3 | -1.4 | 4.3 | -9.5
CCCCc1cc2c(cc1NC(=O)CN1CCCCC1)OCCO2 | 4.8 | 1.0 | -0.2 | 2.5 | -2.0 | 2.4 | -5.1 | -2.8
COC(=O)c1c(NC(=O)c2ccco2)sc2c1CCC2 | 5.3 | -0.2 | -5.2 | -3.4 | 14.8 | -18.9 | 4.0 | 4.4
O=C(COc1ccccc1)NC(=S)Nc1ccc2c(c1)Cc1ccccc1-2 | 61.0* | 0.3 | -0.4 | -4.2 | -1.0 | 3.0 | -4.9 | -1.7
Cc1ccc(NC(=O)C2C(=O)N(C)c3ccccc32)cc1 (stereo unspecified) | 8.4 | -2.5 | -8.4 | 1.3 | 2.8 | 5.4 | 1.1 | 4.1
Cc1c(Cl)cccc1NC(=S)NCC1COc2ccccc2O1 (stereo unspecified) | -10.6 | 0.5 | -42.5 | 10.8 | 2.1 | 0.4 | 2.5 | .

RanGTP-Impb inh: entries above that show a hit
Compound	LANA-H2B inh	Beta2AR agonist	UCH37 DUB inh	RanGTP-Impb inh
CCCCCCc1cc2cc(-c3nnc(-c4cc(OC)c(OC)c(OC)c4)o3)c(=O)oc2cc1O	-6.9	.	-54.6	139.3*

(cont.)
SMILES | T cruzi repl | Bfl-1 A1 inh | Calb FLC | LANA-H2B inh | Beta2AR agonist | UCH37 DUB inh | RanGTP-Impb inh | Beta cell apopt
Cc1cccnc1NC(=O)c1cccc(S(=O)(=O)NCc2ccccc2)c1 | -5.3 | -0.2 | 0.8 | -1.0 | 2.4 | 0.6 | -0.1 | -1.3
Cn1c2ccccc2c(=O)c2cc(C#Cc3ccccn3)ccc21 | -12.7 | -7.0 | 13.9 | 5.3 | 12.2 | -182.9 | 147.1* | -2.6
FCCCOc1ccc(/C=N/OCc2c(Cl)cccc2Cl)cc1 | -21.9 | -0.5 | ? | -7.7 | 9.5 | . | 3.0 | 7.2
CC(C)(C)OC(=O)n1cc(C(=O)c2ccccc2O)cn1 | -8.5 | 0.6 | 4.7 | -0.6 | -1.1 | -13.5 | 3.4 | .
Cn1c(NC2CCCCC2)c(N=O)c(=O)n(C)c1=O | -7.9 | 0.0 | 12.3 | -0.3 | -6.6 | 0.4 | 3.3 | -8.2
O=Cc1c(N2CCN(c3ccccc3)CC2)nc2ccccn2c1=O | -18.9 | 0.0 | -18.7 | 3.4 | 1.2 | 8.5 | -3.4 | -5.5
